KCNQ2 enhance = KCNQ2 (rat) channel potentiation. CHO-K1 KCNQ2, FluxOR thallium flux fluorescence; active compounds read high. O88943. B-score at 10 µM. hit rate 0.54% among 310,000. AID 2239;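 active = fluorescence ratio B-score at least 3 SD of library B-scores, with initial fluorescence B-score within 3 SD, cut at about 5.3 in these data; same plate scores as AID 2156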;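 note: B-score of peak minus minimum over baseline fluorescence ratio after K+ and Tl+ stimulus; positive B-score means potentiation of KCNQ2 with more thallium influx and brighter signal; only the inactives scoring about 0 or higher are listed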
Target sequence (O88943 whole entry, looked up): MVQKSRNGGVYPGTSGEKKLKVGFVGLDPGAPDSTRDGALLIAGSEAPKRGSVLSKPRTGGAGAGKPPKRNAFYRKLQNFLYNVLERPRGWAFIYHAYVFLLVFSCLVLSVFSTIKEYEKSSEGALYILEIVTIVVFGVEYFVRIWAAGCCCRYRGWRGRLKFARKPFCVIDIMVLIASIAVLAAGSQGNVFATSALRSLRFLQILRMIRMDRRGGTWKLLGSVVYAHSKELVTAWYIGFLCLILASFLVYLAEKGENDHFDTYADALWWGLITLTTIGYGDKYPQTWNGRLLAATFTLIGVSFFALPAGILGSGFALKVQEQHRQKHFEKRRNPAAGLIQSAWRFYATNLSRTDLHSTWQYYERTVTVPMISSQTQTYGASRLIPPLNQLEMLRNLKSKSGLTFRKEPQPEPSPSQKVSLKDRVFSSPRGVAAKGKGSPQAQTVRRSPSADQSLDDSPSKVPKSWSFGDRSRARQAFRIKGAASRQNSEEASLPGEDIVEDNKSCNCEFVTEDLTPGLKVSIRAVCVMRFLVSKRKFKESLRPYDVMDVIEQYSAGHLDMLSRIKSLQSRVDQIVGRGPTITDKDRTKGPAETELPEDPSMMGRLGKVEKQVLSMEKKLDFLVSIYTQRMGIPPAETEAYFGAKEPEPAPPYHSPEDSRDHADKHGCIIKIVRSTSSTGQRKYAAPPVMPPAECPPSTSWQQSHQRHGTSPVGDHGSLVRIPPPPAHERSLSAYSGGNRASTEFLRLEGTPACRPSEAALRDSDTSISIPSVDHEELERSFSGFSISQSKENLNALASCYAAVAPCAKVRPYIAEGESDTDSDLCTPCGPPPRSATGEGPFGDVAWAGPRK
KCNQ2 enhance baseline = further read-out of KCNQ2 enhance, marked with its call; B-score; compound at 10 µM; measured here: initial fluorescence intensity artifact check;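 brightness before thallium and not channel activity; 0 = typical well and far values either way flag optical interference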
Active calls of the source: *; · = no result given. A portion of the library; the hit share may differ from the screen's.

entry	KCNQ2 enhance baseline	KCNQ2 enhance	SMILES
1	1.04	0.08	Cn1c(SCc2cc(=O)n3cc(Br)ccc3n2)nnc1C1COc2ccccc2O1 (stereo not given)
2	0.33	0.19	O=C(Nc1cccs1)N1CCN(c2ncccn2)CC1
3	0.17	0.06	CC1CN(C(=S)c2cccc([N+](=O)[O-])c2)CC(C)O1 (stereo not given)
4	-1.13	1.04	CCOC(=O)C1=C(C)NC(=O)NC1c1cccs1 (stereo not given)
5	-0.09	4.11	O=[N+]([O-])c1ccc(Nc2ccccc2)nc1
6	0.51	0.99	COc1ccc(/C=C/C(=O)Oc2ccc(/C=N/NC(=O)COc3c(C)cccc3C)cc2)cc1
7	-1.19	1.29	COc1cccc(CCNC(=O)c2cccc(NC(=O)C3=C(C)OCCS3)c2)c1
8	0	2.39	O=C(Nc1cccnc1)C1CC(c2ccc(Cl)c(Cl)c2)=NO1 (stereo not given)
9	0.98	0.73	COc1ccccc1C(=O)N1CCN(Cc2c[nH]c3ccccc23)CC1
10	0.82	0.4	Cc1ccc(NC(=O)CSc2nc(C)c(Cc3ccccc3)c(=O)[nH]2)cc1
11	0	0.71	CC(OC(=O)c1cc2c(s1)CCCCC2)C(=O)NC(N)=O (stereo not given)
12	-1.74*	17.9*	S=c1[nH]c2cc(-c3ccccc3)ccc2o1
13	0	0.08	CNC(=O)CSc1nc2nn(-c3ccccc3)c(=O)c-2c2n1CCCCC2
14	-1.75	1.4	O=c1c2c(nc3nc(NCc4ccc(Cl)cc4)[nH]n13)CCC2
15	0.72	1.26	O=C(CNC(=O)C12CC3CC(CC(C3)C1)C2)OCc1cc(=O)n2cc(Br)ccc2n1
16	0.04	0.01	CCOC(=O)N1CCN(C(=O)c2ccccc2NC(=O)c2ccccc2Cl)CC1
17	1.25	1.07	CCn1nc(NC(C)=O)c2cc3cccc(C)c3nc21
18	0.09	0.41	CCOC(=O)c1ccc(-c2ccc3[nH]c4ccccc4c(=O)c3c2)cc1F
19	2.17	1.51	O=c1[nH]c(C2CCN(S(=O)(=O)c3ccccc3C(F)(F)F)CC2)nc2c1nnn2Cc1cccc(F)c1
20	-1.75	3.86	CCOC(=O)c1c(NC(=O)C2C3C=CC(C3)C2C(=O)O)sc2c1CCC(CC)C2 (stereo not given)
21	-0.22	0.02	Cc1ccc(S(=O)(=O)N2CCN(C(=O)c3ccccc3)C2C(C)C)cc1 (stereo not given)
22	0.89	1.13	O=C1CC(Nc2cc(=O)[nH]c(=O)[nH]2)C(=O)N1c1ccccc1Cl (stereo not given)
23	-0.58	0.75	CCOC(=O)C1CCN(C(=O)Cn2nc(C)c3c(C)n(-c4ccccc4)nc3c2=O)CC1
24	-1.45	1.55	COc1ccc(OC)c(-c2nnc(SCC(=O)N3CCCc4ccccc43)o2)c1
25	-1.1	1.41	CCOC(=O)c1sc(NC(=O)CCCn2nc([N+](=O)[O-])c(Cl)c2C)c(C(=O)OCC)c1C
26	-0.95	1.38	COc1ccc(C(=O)NNC(=O)C(=O)NCc2ccccc2)cc1
27	-0.06	0.04	O=C(Cn1cnc2c(nnn2-c2cccc(Cl)c2)c1=O)NCc1ccccc1
28	0.39	0.94	Cc1cccc(NC(=O)c2c([N+](=O)[O-])c(C(C)(C)C)nn2C)c1
29	1.47	1.06	CCOc1ccccc1CNS(=O)(=O)c1ccc2c(c1)C(C)(C)C(=O)N2C
30	-0.57	1.42	COCCC1CCCCN1C(=O)c1cc(COc2ccc(-n3cncn3)cc2)on1 (stereo not given)
31	-0.94	0.01	O=C(CCNC(=O)Cn1cnc2ccccc2c1=O)NCC1COc2ccccc2O1 (stereo not given)
32	-1.19	0.94	COc1ccc(C(=O)O)cc1S(=O)(=O)Nc1cccc(C)c1
33	-0.02	1.8	Cc1ccc(C(=O)CSc2nnc(-c3ccco3)o2)o1
34	1.83	1.03	CCc1ccccc1S(=O)(=O)Cc1ccc(C(=O)NC(C)C)o1
35	-3.29	0.39	Cc1cc(O)c(-c2cc(C(=O)NCc3ccc4c(c3)OCO4)[nH]n2)cc1C
36	-0.08	0.47	Cc1cc(=O)c(C(=O)O)cn1-c1ccc(C(C)C)cc1
37	1.86	0.53	CC1Cn2c(nnc2-c2cc3ccccc3cc2O)S1 (stereo not given)
38	-2.45	0.81	COc1cc(OC)nc(NC(=O)CN2CCN(c3ccc(F)cc3)CC2)n1
39	0.6	2.7	Cn1c(=O)c2sccc2n2c(CCCC(=O)N3CCN(c4ccccn4)CC3)nnc12
40	0.59	0.06	Cc1ccc(NC(=O)NCCCN2CCOCC2)cc1
41	0.69	0.61	COC(=O)Cn1c(O)c(N=NC(=O)CNC(=O)c2ccc3c(c2)OCCO3)c2ccccc21
42	-0.06	1.69	Oc1ccc(N2CCN(c3ncnc4sc5c(c34)CCC5)CC2)cc1
43	-0.44	0.02	C=CCN1C(=O)C2(OCCCO2)c2cc(Cl)ccc21
44	-0.41	0.07	Cc1cc(Nc2cccc(Cl)c2)nc(NCc2ccccc2)n1
45	0.54	0.02	Cc1cccnc1NC(=O)c1nn(C)c2c1CS(=O)(=O)c1ccccc1-2
46	0.2	0.51	O=C(O)c1ccc(Nc2ccc([N+](=O)[O-])c3nonc23)cc1
47	2.02	0.83	CCc1nc2ccccc2n1CC(=O)N1CCN(S(=O)(=O)c2cccc(C(F)(F)F)c2)CC1
48	-1.3	0.93	Cc1ccc(NC(=O)c2ccc(S(=O)(=O)NCc3ccco3)cc2)cc1
49	-2.7	1.8	Cc1ccc(C)c(-n2c(SCC(=O)Nc3nnc(C)s3)nnc2-c2ccoc2C)c1
50	-0.49	0.01	CCOC(=O)CSc1nc2c(sc(=S)n2-c2ccccc2)c(=O)[nH]1
51	-0.32	0.01	O=C(NCCc1ccco1)c1cc(COc2cccc(C(F)(F)F)c2)on1
52	-1.22	0.33	CCN(CC)C(=S)SCC(=O)Nc1ncc2c(n1)CCCC2=O
53	-0.89	1.39	O=C(O)c1ccc(COc2ccccc2/C=C2\NC(=O)N(Cc3ccc(F)cc3)C2=O)cc1
54	-0.91	0.05	CC(=O)OCC(=O)[C@@]1(O)CC[C@H]2[C@@H]3CCC4=CC(=O)CC[C@]4(C)[C@H]3[C@@H](O)C[C@@]21C
55	0	0.12	CCc1ccc(S(=O)(=O)c2cn(C)c3cc(OC)c(OC)cc3c2=O)cc1
56	0.13	0.02	Cc1ccc(S(=O)(=O)N2CCC(C(=O)N3CCC3)CC2)cc1
57	0.26	0.66	CCC(=O)N1N=C(c2ccc(C)o2)CC1c1ccc(OC)cc1 (stereo not given)
58	0.67	0.08	COC(=O)c1ccc(NC(=O)C2CC(=O)OC2c2ccccc2)cc1 (stereo not given)
59	-0.4	0.01	CSc1nc(Cc2ccccc2)cc(=O)[nH]1
60	-1.19	2.87	CCS(=O)(=O)c1ccc(OC)c(N=Nc2ccc(O)c3ncccc23)c1

Remaining list, next part
entry	KCNQ2 enhance baseline	KCNQ2 enhance	SMILES
61	1.68	0.64	CC(C)N1CC(COc2ccccc2Cl)OC1=O (stereo not given)
62	0.73	0.03	CNCCOc1nc(N2CCOCC2)nc(C)c1[N+](=O)[O-]
63	-1.36	1.08	CC(C)CC(=O)NC(=S)Nc1ccc(S(=O)(=O)NC(C)(C)C)cc1
64	-1.61	0.09	COc1ccc(C2CC(=O)Oc3cc(O)cc(O)c32)cc1 (stereo not given)
65	-0.28	1.44	O=C1OCCC1Sc1ncnc2sc3c(c12)CCC3 (stereo not given)
66	-1.03	0.35	O=C(OCC1OC(n2ccc(=O)[nH]c2=O)C(Cl)C1O)c1ccccc1 (stereo not given)
67	-1.08	0.1	Cc1sc2ncn(CC(=O)NCCCC(=O)N3CCN(Cc4ccc5c(c4)OCO5)CC3)c(=O)c2c1C
68	0.01	0.02	Cc1cc(=O)oc2cc(O[C@@H]3O[C@H](CO)[C@@H](O)[C@H](O)[C@H]3O)ccc12
69	0.59	0.45	CCn1cc(C(=O)N2CCCC(C(=O)c3ccc4ccccc4c3)C2)cn1 (stereo not given)
70	-0.5	4.44	COc1ccc(C)cc1N=Nc1ccc(O)c2ncccc12
71	0.05	0.99	CN(CC(=O)Nc1ccc(F)cc1)S(=O)(=O)c1ccc2c(c1)c(=O)n(C)c(=O)n2C
72	0.09	0.61	c1coc(CSCc2cn3cccnc3n2)c1
73	1.9	0.55	O=C(OCCN1CCCCC1)C1(c2ccccc2)CCCC1
74	-0.23	0.12	C[C@]12CCC(=O)C=C1C=C[C@@H]1[C@@H]2CC[C@@]2(C)[C@H]1CC[C@@]21CCC(=O)O1
75	-1.8	0.28	CCN(CC)S(=O)(=O)c1ccc(N)cc1
76	-0.06	1.94	O=C(NCc1ccco1)C(=O)NCc1ccccc1Cl
77	-0.48	0.05	O=C(Nc1ccnn1C1CCN(Cc2cccc(OCCO)c2)CC1)c1cccc(F)c1
78	0.36	0.98	COc1ccc(OC)c(NC(=O)c2ccc(-c3cccs3)cc2)c1
79	-0.13	1.46	CCn1c(SCC(=O)NC(=O)c2ccccc2OC)nc2ccccc21
80	-1.2	1.96	Cc1nnc2c3ccccc3c(-c3cccs3)nn12

14 structures from above, ordered by molecular weight, descending.
entry	KCNQ2 enhance baseline	KCNQ2 enhance	SMILES
67	-1.08	0.1	Cc1sc2ncn(CC(=O)NCCCC(=O)N3CCN(Cc4ccc5c(c4)OCO5)CC3)c(=O)c2c1C
71	0.05	0.99	CN(CC(=O)Nc1ccc(F)cc1)S(=O)(=O)c1ccc2c(c1)c(=O)n(C)c(=O)n2C
79	-0.13	1.46	CCn1c(SCC(=O)NC(=O)c2ccccc2OC)nc2ccccc21
69	0.59	0.45	CCn1cc(C(=O)N2CCCC(C(=O)c3ccc4ccccc4c3)C2)cn1 (stereo not given)
74	-0.23	0.12	C[C@]12CCC(=O)C=C1C=C[C@@H]1[C@@H]2CC[C@@]2(C)[C@H]1CC[C@@]21CCC(=O)O1
78	0.36	0.98	COc1ccc(OC)c(NC(=O)c2ccc(-c3cccs3)cc2)c1
68	0.01	0.02	Cc1cc(=O)oc2cc(O[C@@H]3O[C@H](CO)[C@@H](O)[C@H](O)[C@H]3O)ccc12
73	1.9	0.55	O=C(OCCN1CCCCC1)C1(c2ccccc2)CCCC1
62	0.73	0.03	CNCCOc1nc(N2CCOCC2)nc(C)c1[N+](=O)[O-]
70	-0.5	4.44	COc1ccc(C)cc1N=Nc1ccc(O)c2ncccc12
65	-0.28	1.44	O=C1OCCC1Sc1ncnc2sc3c(c12)CCC3 (stereo not given)
64	-1.61	0.09	COc1ccc(C2CC(=O)Oc3cc(O)cc(O)c32)cc1 (stereo not given)
80	-1.2	1.96	Cc1nnc2c3ccccc3c(-c3cccs3)nn12
75	-1.8	0.28	CCN(CC)S(=O)(=O)c1ccc(N)cc1

Later entries
entry	KCNQ2 enhance baseline	KCNQ2 enhance	SMILES
81	0.99	1.1	O=c1[nH]c(S)nc2sc3c(c12)CCCC3
82	0.84	0.05	COc1cccc2c(C)c(C(=O)O)[nH]c12
83	2.01	0.84	O=C(Nc1ccc(F)cc1)Nc1cnccn1
84	1.49	0.66	CNC(=O)Nc1ccc(S(N)(=O)=O)cc1
85	0.05	1.97	CN(C)c1nc(-c2cccnc2)nc(-c2ccc(Cl)cc2)c1C#N
86	-0.86	0.17	COc1ccc(NS(=O)(=O)c2ccc(O)c(C(=O)OCC(=O)N3CC(C)OC(C)C3)c2)cc1 (stereo not given)
87	-1.42	0.89	CCOC(=O)c1sc2nc(C)nc(Nc3ccccc3)c2c1C
88	0.92	1.02	CN(c1ccc(C(=O)NCc2ccncc2)cc1)S(=O)(=O)c1ccc(Cl)cc1
89	2.48	0.3	O=c1c2cn[nH]c2[nH]c(=S)n1-c1ccccc1Cl
90	-0.01	0.51	C[C@H](NC(=O)c1ccc(Br)cc1)C(=O)NCc1ccc(S(N)(=O)=O)cc1
91	-0.38	0.03	COc1ccc(CC(=O)Nc2ccc(-c3cn4ccccc4n3)cc2)cc1
92	-0.03	0.01	CCc1nnc(NC(=O)c2ccc(OC)cc2)s1
93	0.17	0.14	CCCCNC(=O)c1nn2c(C(F)(F)F)cc(-c3ccc(OC)cc3)nc2c1Br
94	0.32	1.53	O=C(O)CCCC(=O)N1N=C(c2c(-c3ccccc3)c3cc(Cl)ccc3[nH]c2=O)CC1c1cccs1 (stereo not given)
95	-0.93	1.21	CCC(=O)NNc1ncnc2c1cnn2-c1cccc(C)c1
96	0.54	0.09	COc1cc(=O)[nH]c(SCC(=O)Nc2nc3c(s2)CCCC3)n1
97	0.1	0.04	CC(=O)Nc1ccc(Cl)cc1C1COC(=O)C1=N (stereo not given)
98	0.7	1.15	O=C(O)CCNS(=O)(=O)c1ccc2c(c1)OCCCO2
99	-1.23	1.13	O=C(CSc1nnc(NC(=O)c2c(F)cccc2F)s1)Nc1ccc(F)cc1
100	1.55	0.11	CCC(C(=O)OCC(=O)Nc1cccc(C(C)=O)c1)c1ccccc1 (stereo not given)
101	0.19	0.27	C=C(C)COc1ccc(-c2n[nH]c(C)c2-c2ccccc2)c(O)c1
102	-1.12	0.27	CCOC(=O)c1cnc(SCC(=O)Nc2nnc(CC)s2)nc1N
103	-0.06	1.06	CCC(C)[C@H](NC(=O)NCc1cccc(OC)c1)C(=O)O (stereo not given in full)
104	-0.17	0.65	COc1ccccc1NS(=O)(=O)c1cc(NC(=O)c2cc(=O)[nH]c3ccccc23)ccc1N1CCOCC1
105	·	0.77	O=C(Cc1cc(=O)[nH][nH]1)N/N=C/c1c(Cl)cccc1Cl
106	0.79	0.26	Cc1ccc(S(=O)(=O)NC2=NCN(CCOC(=O)c3ccc([N+](=O)[O-])cc3)CN2)cc1
107	0.55	1.74	Cc1noc(C)c1C(=O)NC(C)c1ccc2c(c1)OCO2 (stereo not given)
108	-1.41	1.18	CCN1CCN(CCC(=O)Nc2cccc(OC)c2)CC1

Pulled by compound from above, 2 records:
entry	KCNQ2 enhance baseline	KCNQ2 enhance	SMILES
106	0.79	0.26	Cc1ccc(S(=O)(=O)NC2=NCN(CCOC(=O)c3ccc([N+](=O)[O-])cc3)CN2)cc1
101	0.19	0.27	C=C(C)COc1ccc(-c2n[nH]c(C)c2-c2ccccc2)c(O)c1
